VDR inh: Inhibitors of the vitamin D receptor (VDR): qHTS; AID 504847, 2011; Vitamin D3 receptor (Homo sapiens), P11473; VDR-SRC2-3 peptide fluorescence polarization, 2 h; 0.93% of 400,000 active; Potency, µM, without a hit: max response, negative = inhibition, usual class: inhibitors; active means well fitted inhibition curve with a large enough effect; inconclusive means small, poorly fitted or top-dose-only effect, or another doubt; inactive means no such curve, though single readings can be large or run the other way; further: series mostly up to about 120 µM
Target sequence (P11473 whole entry, looked up): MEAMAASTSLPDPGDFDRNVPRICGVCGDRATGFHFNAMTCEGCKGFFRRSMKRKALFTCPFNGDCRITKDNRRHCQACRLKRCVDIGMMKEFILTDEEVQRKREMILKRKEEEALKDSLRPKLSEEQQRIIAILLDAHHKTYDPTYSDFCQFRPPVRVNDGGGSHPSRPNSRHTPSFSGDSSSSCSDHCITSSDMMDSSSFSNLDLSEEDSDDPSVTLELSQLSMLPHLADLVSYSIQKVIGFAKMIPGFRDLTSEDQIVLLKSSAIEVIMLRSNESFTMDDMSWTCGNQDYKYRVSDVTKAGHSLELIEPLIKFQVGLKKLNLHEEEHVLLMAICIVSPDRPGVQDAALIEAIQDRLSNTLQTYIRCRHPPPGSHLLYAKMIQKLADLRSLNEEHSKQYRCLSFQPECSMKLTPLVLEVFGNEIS
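Inhibition of the VDR/SRC2-3 peptide interaction is quantified by fluorescence polarization. Compounds (23 nl, pintool) incubate with the reagents for 2 hours at ambient room temperature.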
* hit, by the source's call; ? = inconclusive; [ ] = dose if it differs, or a comment. On the % scale 0 is the no-effect control and ±100 the full control effect; potency means the concentration at half of the fitted maximal effect. Only part of the results is shown (hit frequency here may not be typical).

Start of the listing, in advance, 27 compounds:
smiles	VDR inh
O=C(O)C1=C[C@H](c2ccc(F)cc2)C[C@H](OCCCCO)O1	9%
CCOC(=O)C1=C(CN2CCCCCC2)NC(=O)NC1c1ccc2c(c1)OCO2 (stereo unspecified)	-10%
O=S(=O)(c1ccc(F)c(F)c1F)N1CCN(c2ncnc3sccc23)CC1	-17%
COc1ccc(/C=N/S(=O)(=O)CCc2ccccc2)c(OC)c1	9%
COCC1CCN(C(=O)C2CCN(c3nc(-c4ccccc4)nc4c3CCC4)CC2)C1 (stereo unspecified)	-5%
O=C(NCc1ccc(Cl)cc1)c1ccc(CS(=O)Cc2cccc(Cl)c2)o1 (stereo unspecified)	24%
O=C1/C(=C\c2ccc(O)c(O)c2)C(c2ccccc2)=NN1c1ccccc1	-24%
O=C(N/N=C/c1ccccc1[N+](=O)[O-])c1ccncc1	-3%
Cc1ccc(NC(=O)NC2CCCc3ccccc32)cc1 (stereo unspecified)	-14%
CN(C)S(=O)(=O)N1CCN(c2ccc([N+](=O)[O-])c(N3CCCCC3)c2)CC1	16%
Cc1cc(-c2nn(-c3ccccc3F)cc2CNCCc2cnccn2)c(C)s1	-3%
CN1C[C@@H]2[C@@H]3C(=O)N(C)C(=O)[C@@H]3[C@](C)(C1=O)N2C(=O)c1ccc(F)cc1	-2%
Cc1c(C(=O)Nc2ccc3c(c2)OCO3)oc2ccccc12	-15%
COc1cccc(NC(=O)N2CCCC2C(=O)NCc2ccccc2)c1 (stereo unspecified)	9%
O=C1c2ccccc2NC(c2ccccc2O)N1O (stereo unspecified)	23%
COc1ccc(Cl)cc1C(=O)Nc1ccccc1N1CCN(C(=O)C(C)C)CC1	13%
CN(C)C(=S)SCCn1c(N)nc(N(C)C)nc1=O	16%
Cn1nnc2cc(NC(=O)Nc3cccc(Cl)c3)ccc21	-4%
Cc1ccc(S(=O)(=O)N(C)C)cc1NC(=O)COC(=O)CCC1CCCCC1	-12%
CCOC(=O)c1c(N/N=C/c2ccncc2)n[nH]c1C	0%
O=C(N/N=C/c1cc([N+](=O)[O-])ccc1N1CCNCC1)c1ccc([N+](=O)[O-])cc1	6%
COCC(=O)N1CCC2(CC1)CN(c1ccccn1)C2	-10%
Cc1ccc(CNC(=O)C2CCN(S(=O)(=O)c3c(C)noc3C)CC2)cc1	-2%
CC(=O)SC1CC2=CC(=O)CC[C@]2(C)C2CC[C@@]3(C)C(CC[C@@]34CCC(=O)O4)C12 (stereo partly specified)	0%
COc1ccc(N2C(=O)CC(c3ccc([N+](=O)[O-])cc3)C2=O)cc1 (stereo unspecified)	8%
O=C(NC12CC3CC(CC(C3)C1)C2)c1ccc(-c2ccc(Br)cc2)o1	-7%
O=C(Cn1cccn1)N1CCCC(N2CCN(c3ccccc3F)CC2)C1 (stereo unspecified)	-3%

The whole of this part, from the start:
smiles	VDR inh
O=C(O)C1=C[C@H](c2ccc(F)cc2)C[C@H](OCCCCO)O1	9%
CCOC(=O)C1=C(CN2CCCCCC2)NC(=O)NC1c1ccc2c(c1)OCO2 (stereo unspecified)	-10%
O=S(=O)(c1ccc(F)c(F)c1F)N1CCN(c2ncnc3sccc23)CC1	-17%
COc1ccc(/C=N/S(=O)(=O)CCc2ccccc2)c(OC)c1	9%
COCC1CCN(C(=O)C2CCN(c3nc(-c4ccccc4)nc4c3CCC4)CC2)C1 (stereo unspecified)	-5%
O=C(NCc1ccc(Cl)cc1)c1ccc(CS(=O)Cc2cccc(Cl)c2)o1 (stereo unspecified)	24%
O=C1/C(=C\c2ccc(O)c(O)c2)C(c2ccccc2)=NN1c1ccccc1	-24%
O=C(N/N=C/c1ccccc1[N+](=O)[O-])c1ccncc1	-3%
Cc1ccc(NC(=O)NC2CCCc3ccccc32)cc1 (stereo unspecified)	-14%
CN(C)S(=O)(=O)N1CCN(c2ccc([N+](=O)[O-])c(N3CCCCC3)c2)CC1	16%
Cc1cc(-c2nn(-c3ccccc3F)cc2CNCCc2cnccn2)c(C)s1	-3%
CN1C[C@@H]2[C@@H]3C(=O)N(C)C(=O)[C@@H]3[C@](C)(C1=O)N2C(=O)c1ccc(F)cc1	-2%
Cc1c(C(=O)Nc2ccc3c(c2)OCO3)oc2ccccc12	-15%
COc1cccc(NC(=O)N2CCCC2C(=O)NCc2ccccc2)c1 (stereo unspecified)	9%
O=C1c2ccccc2NC(c2ccccc2O)N1O (stereo unspecified)	23%
COc1ccc(Cl)cc1C(=O)Nc1ccccc1N1CCN(C(=O)C(C)C)CC1	13%
CN(C)C(=S)SCCn1c(N)nc(N(C)C)nc1=O	16%
Cn1nnc2cc(NC(=O)Nc3cccc(Cl)c3)ccc21	-4%
Cc1ccc(S(=O)(=O)N(C)C)cc1NC(=O)COC(=O)CCC1CCCCC1	-12%
CCOC(=O)c1c(N/N=C/c2ccncc2)n[nH]c1C	0%
O=C(N/N=C/c1cc([N+](=O)[O-])ccc1N1CCNCC1)c1ccc([N+](=O)[O-])cc1	6%
COCC(=O)N1CCC2(CC1)CN(c1ccccn1)C2	-10%
Cc1ccc(CNC(=O)C2CCN(S(=O)(=O)c3c(C)noc3C)CC2)cc1	-2%
CC(=O)SC1CC2=CC(=O)CC[C@]2(C)C2CC[C@@]3(C)C(CC[C@@]34CCC(=O)O4)C12 (stereo partly specified)	0%
COc1ccc(N2C(=O)CC(c3ccc([N+](=O)[O-])cc3)C2=O)cc1 (stereo unspecified)	8%
O=C(NC12CC3CC(CC(C3)C1)C2)c1ccc(-c2ccc(Br)cc2)o1	-7%
O=C(Cn1cccn1)N1CCCC(N2CCN(c3ccccc3F)CC2)C1 (stereo unspecified)	-3%
CC(=O)Nc1cccc(NC(=O)COc2nncc3ccccc23)c1	-13%
O=S(=O)(NCCN1CCOCC1)c1ccc(Cl)s1	-13%
COC(=O)c1ccc(C2NC(=S)N(c3ccccc3)C(C)=C2C(=O)Nc2ccccc2OC)cc1 (stereo unspecified)	-14%
CCNc1nc(NCC)n2c(SCC(=O)Nc3ccc(Br)cc3F)nnc2n1	71µM*
S=C(c1cn(CCOc2ccccc2)c2ccccc12)N1CCCC1	-12%
O=C(CCC1CCCN(C(=O)C2CCCC2)C1)NCc1ccc(F)c(F)c1 (stereo unspecified)	7%
N#CCSc1nnc2ccc3ccccc3n12	35%[activator]
Cc1c(NC(=O)CN2CCC(C(N)=O)CC2)cccc1[N+](=O)[O-]	-16%
O=C(Nc1ccc(S(=O)(=O)Nc2cnc3ccccc3n2)cc1)c1ccc(F)cc1	6%
O=C(Nc1nnc(C2=COCCO2)o1)c1ccc(Cl)cc1	-6%
COCCNC(=O)c1onc(CSc2ccc(C)c(C)c2)c1C(=O)O	-17%
COc1ccc(C(=O)Oc2ccc(=O)n(-c3ccccc3)n2)cc1	-12%
CCCCCCNc1c([N+](=O)[O-])c(=O)sc2ccccc12	9%
COc1ccc(CNC(=O)CCC(=O)N2CCN(S(=O)(=O)c3cc([N+](=O)[O-])ccc3C)CC2)cc1	-1%
Cc1nn(-c2ccccc2)c(Cl)c1C(=O)NCCCCNC(=O)c1c(C)nn(-c2ccccc2)c1Cl	20%
COCCCNC(=O)/C(C#N)=C/c1c(N2CCN(c3ccccc3)CC2)nc2c(C)cccn2c1=O	-16%
O=C(NCC1CCN(Cc2ccc(Cl)cc2)CC1)C1CCCN(c2ncnc3c2nc2n3CCCCC2)C1 (stereo unspecified)	-2%
CCOC(=O)c1cccc(N2C(=O)C3C4C=CC(CC4)C3C2=O)c1 (stereo unspecified)	5%
COc1ccc(-c2nc(CSCC(=O)NCCCN3CCCC3=O)c(C)o2)cc1OC	-26%
CN1CCN(c2ccc(S(=O)(=O)N3CCCCC3)cc2NC(=O)/C=C/c2ccc(OC(F)F)cc2)CC1	-26%
Cc1csc2nc(COC(=O)c3ccc(NC(=O)C(C)C)cc3)cc(=O)n12	-4%
COCCn1c(N)c(C(=O)NCC2CCCO2)c2nc3ccccc3nc21 (stereo unspecified)	-9%
COc1cc(/C=N/S(=O)(=O)c2ccccc2)cc(OC)c1O	21%

New compounds follow.
smiles	VDR inh
CC(C)CC(=O)Nc1ccc2c(c1)nc(CCN1CCOCC1)n2C	16%
CCCOc1ccc(-c2cc(C(=O)NCC3CCCO3)c3ccccc3n2)cc1 (stereo unspecified)	6%
N#CC(C#N)=c1ccc2c(c1)N1C3=C(CCCC3)CC3CCCCC31N=2 (stereo unspecified)	9%
CCOc1ccc(N2C(=O)CC(NCCNc3ccc([N+](=O)[O-])cn3)C2=O)cc1 (stereo unspecified)	-5%
COc1ccc(C(=O)Nc2ccc(-c3nnc4n3CCCCC4)cc2)cc1OC	5%
CC(C)(C)c1ccc(C2Sc3ccccc3NC3=C2C(=O)c2ccccc23)cc1 (stereo unspecified)	-9%
Cc1ccc2[nH]c(CNC(=O)c3ccc(F)cc3)cc2c1	-9%
CC(C)Sc1nc2ccccc2n1CC(=O)O	-2%
c1ccc(CNc2ncnc3c2cnn3-c2ccccc2)cc1	-5%
CC(NC(=O)CSc1n[nH]c(-c2ccccc2Cl)n1)c1nc2ccccc2[nH]1 (stereo unspecified)	7%
Cc1ccnc(NC(=O)CCC(=O)N(CC(=O)NC2CCCCC2)C2CCCC2)c1	-21%
C=C(C)COc1ccc2c(C)c(C)c(=O)oc2c1OCC(=C)C	-4%
CC(=O)N1CCN(Cc2nc3cc(NC(=O)NC4CCCCC4)ccc3n2C)CC1	-3%
COc1ccc(/C=C2/SC(=S)N(CCCC(=O)Nc3cccc(O)c3)C2=O)cc1	-1%
CCOc1ccc(CN2C(=O)c3ccccc3C2C(=O)NCCc2ccc(OC)c(OC)c2)cc1 (stereo unspecified)	-4%
COc1ccc2oc(C(=O)OCc3nnc(-c4ccccc4)o3)c(C)c2c1	-11%
O=C(NC1c2ccccc2-c2ccccc21)N1CCCCC1	-1%
CCOC(=O)c1ccc(NC(=O)CCS(=O)(=O)c2ccc3c(c2)oc(=O)n3C)cc1	1%
S=c1nccc(-c2ccc(Cl)cc2)[nH]1	?
CC1(C)C(CSc2nc3ccccc3[nH]2)C1(Cl)Cl (stereo unspecified)	1%
COc1ccccc1NC(=O)COc1ccc(/C=N/NC(=O)c2cccnc2)cc1	22%
COc1ccc(S(=O)(=O)N(CC(=O)NCCCN(C)C)c2ccc(C)cc2)cc1OC	-7%
C=CCNC(=O)C1CC(=O)N(c2ccc(OCc3ccc(F)cc3)cc2)C1 (stereo unspecified)	-22%
CCn1c2ccccc2c2nnc(SCC(=O)O)nc21	-9%
OC1(C(F)(F)F)CC(c2ccc3ccccc3c2)=NO1 (stereo unspecified)	-13%
Cc1cc(NC(=O)CSc2cn(C)c3ccccc23)no1	-20%
C#CCOCCOCCOCCNc1nc(N2CCN(C(=O)[C@H]([C@@H](C)CC)n3cc([C@@H](N)CC(C)C)nn3)CC2)nc(N2CCN(C(=O)[C@H](Cc3cc4ccccc4[nH]3)n3cc([C@@H](N)Cc4ccc(O)cc4)nn3)CC2)n1	-6%
CCS(=O)(=O)c1nc(S(=O)(=O)c2ccc(C)cc2)c(NC(C)c2ccccc2)s1 (stereo unspecified)	9%
CC1(C)C2(C#N)C(=O)NC(=O)C12C#N (stereo unspecified)	5%
Cc1cc(C)n2nc(S(=O)(=O)NC(C)(C)C)nc2n1	9%
O=C(C(NS(=O)(=O)c1cccc2nsnc12)c1ccccc1)N1CCN(c2ccccc2)CC1 (stereo unspecified)	-9%
Cc1cc2cc(CN(Cc3cccs3)C(=S)NCC3CCCO3)c(=O)[nH]c2cc1C (stereo unspecified)	-19%
Cc1cc(=O)[nH]c(N/N=C/c2cc(C)n(-c3ccccc3)c2C)n1	-14%
CCC(=O)Oc1ccc(C(=O)Nc2ccc3c(c2)OCO3)cc1	11%
Cc1ccc(Cl)cc1N1CCN(C(=O)C2CCN(S(=O)(=O)c3c(C)noc3/C=C/c3ccccc3F)CC2)CC1	0%
C=CCN(c1ccccc1)S(=O)(=O)c1ccc2[nH]cc(C(=O)NCCOC)c(=O)c2c1	1%
Cc1cccn2c(=O)c(C(=O)N3CCN(c4ccccc4)CC3)cnc12	10%
COc1cc(C2CC(=O)c3c([nH]c(C(=O)OCc4ccc(C)cc4)c3C)C2)cc(OC)c1OC (stereo unspecified)	-2%
Cc1ccc(S(=O)(=O)Nc2ccc3c4c(cccc24)CC3)c(C)c1	-11%
Cc1cccc(OCCC(=O)OCC(=O)N2CCc3ccccc32)c1	16%
Cc1ccc(Oc2ncnc3sccc23)cc1	-13%
COc1ccc(NC(=S)Nc2ccc3nsnc3c2)cc1	89µM*
COc1cccc(NC(=O)CC2Nc3cc(C)c(C)cc3NC2=O)c1 (stereo unspecified)	-2%
Cc1cc([N+](=O)[O-])nn1CC(=O)N1CCOCC1	4%
Cc1ccc(NC(=S)Nc2cccc(S(=O)(=O)Nc3c(C)n(C)n(-c4ccccc4)c3=O)c2)cc1	-7%
CCC1(C)NC(=O)N(CC(=O)NCC(=O)Nc2c(C)cc(C)cc2C)C1=O (stereo unspecified)	0%

Some of these compounds in order of the VDR inh value, highest first.
smiles	VDR inh
C#CCOCCOCCOCCNc1nc(N2CCN(C(=O)[C@H]([C@@H](C)CC)n3cc([C@@H](N)CC(C)C)nn3)CC2)nc(N2CCN(C(=O)[C@H](Cc3cc4ccccc4[nH]3)n3cc([C@@H](N)Cc4ccc(O)cc4)nn3)CC2)n1	-6%
Cc1cc2cc(CN(Cc3cccs3)C(=S)NCC3CCCO3)c(=O)[nH]c2cc1C (stereo unspecified)	-19%
Cc1cc(NC(=O)CSc2cn(C)c3ccccc23)no1	-20%

Assay outcomes from PubChem.
